Screening results (PubChem)
MbtI inh: MbtI salicylate synthase inhibition. hit rate 0.89% among 100,000. purified MbtI enzyme, fluorescence intensity read-out. inhibition, %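 (about 17 µg/mL by stock and volumes)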. AID 493033. P9WFX0;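 active = above 50% in both replicates, above 80% if mildly self-fluorescent; inactive = the rest, strongly fluorescent compounds included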;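 also: 0% = mean of negative and 100% = mean of positive controls; one replicate is shown; some compounds called inactive have numbers as strong as hits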
PV pol inh: poliovirus RNA polymerase inhibition | P03300 | AID 588519 | poliovirus polymerase elongation, fluorescence polarization; stronger effect = lower value | % elongation, % (compound at 16.7 µg/mL) | hit rate 0.66% among 150,000; in the data active = % elongation below about 90%; also: some results filed as inactive read as strong as hits
Target sequence (P03300 1749-2209 limits assumed): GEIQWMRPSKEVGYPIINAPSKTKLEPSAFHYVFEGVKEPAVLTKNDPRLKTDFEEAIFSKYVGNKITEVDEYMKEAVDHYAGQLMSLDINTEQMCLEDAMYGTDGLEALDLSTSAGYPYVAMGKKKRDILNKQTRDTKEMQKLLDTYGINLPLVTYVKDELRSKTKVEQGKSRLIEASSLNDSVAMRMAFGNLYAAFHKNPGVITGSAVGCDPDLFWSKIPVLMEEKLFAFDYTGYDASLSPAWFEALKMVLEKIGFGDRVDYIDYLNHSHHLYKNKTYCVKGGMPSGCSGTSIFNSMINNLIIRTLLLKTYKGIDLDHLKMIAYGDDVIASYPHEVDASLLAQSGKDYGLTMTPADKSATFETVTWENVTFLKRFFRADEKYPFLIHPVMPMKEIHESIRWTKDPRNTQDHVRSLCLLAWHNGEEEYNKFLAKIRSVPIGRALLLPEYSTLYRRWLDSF
Mtb MenB inh: inhibitors of Mycobacterium tuberculosis MenB enzyme; P9WNP5; MenB enzyme assay, absorbance read-out; some hits fall short of the stated cut; inhibition, %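 (about 12 µg/mL by stock and volumes)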; hit rate 0.43% among 100,000;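 active = mean of two replicates above 30%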;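 also: 0% = no compound and 100% = wells with inactive enzyme; the first replicate is given; strong numbers were not always called active; inactives centre near -10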
Target sequence (P9WNP5 whole entry, looked up): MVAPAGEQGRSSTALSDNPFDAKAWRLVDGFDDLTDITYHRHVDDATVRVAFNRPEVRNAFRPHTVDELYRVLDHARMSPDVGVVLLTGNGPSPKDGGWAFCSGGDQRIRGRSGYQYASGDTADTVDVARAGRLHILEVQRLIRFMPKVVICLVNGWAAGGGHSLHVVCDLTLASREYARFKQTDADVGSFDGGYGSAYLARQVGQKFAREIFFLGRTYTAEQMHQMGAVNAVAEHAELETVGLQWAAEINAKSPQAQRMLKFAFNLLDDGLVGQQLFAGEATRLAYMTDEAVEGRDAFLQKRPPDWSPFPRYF
PV pol inh intensity: recorded beside PV pol inh, whose call it bears; % elongation; measured here: total intensity read-out; formula for this scale not given here;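 total fluorescence in place of polarization; lower means less elongation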
* = called active by the depositor; · = not tested or not shown; & = joins results of further samples.

entry	compound	MbtI inh	PV pol inh	PV pol inh intensity	Mtb MenB inh
1	CCOC(=O)c1c(NC(=S)N2CCN(C(=O)c3ccco3)CC2)sc2c1CCCCCC2	6	101	102	-4
2	CNC(=S)Nc1cccc(Cn2cc(Cl)cn2)c1	-2	99	103	3
3	O=C(O)CC[n+]1ccc(-c2cc[n+](CCC(=O)O)cc2)cc1	1	101	104	2
4	Cc1cc2n(n1)C(c1ccccc1)CC(c1ccccc1)=N2 (stereo not given)	-4	97	105	-10
5	Cc1cc(C)c(OCCCN2CCCC2)c(C)c1	3	102	102	-5
6	CN(C1CCCCC1)C1CCN(C(=S)Nc2cc(F)cc(F)c2)CC1	-13	102	100	-40
7	N#CC(C#N)=NNc1ccccc1C(N)=O	26	101	94	-447
8	O=c1c2nnn(Cc3ccccc3)c2ncn1Cc1ccc(F)cc1	-11	100	103	-7
9	CNC(=O)N1CCn2cccc2C1C (stereo not given)	30	84	121	19
10	O=C(c1ccccc1NS(=O)(=O)c1ccc(F)cc1)N1CCCC1	-4	101	99	·
11	Nc1nc(CN2CCC(Cc3ccccc3)CC2)nc(Nc2ccccc2)n1	-6	100	102	-17
12	CCOC(=O)C1=C(CC)Nc2ccccc2N=C1NC(=O)c1nc2nccc(C)n2n1	17	102	104	6
13	Cc1cccc(NC(=O)CC2CCC2)c1	-4	102	104	-19
14	O=C1OCCC1OC(=O)C1(c2ccc(F)cc2)CCCC1 (stereo not given)	1	103	108	4
15	O=C(Nc1ncn[nH]1)c1ccc(S(=O)(=O)N2CCOCC2)cc1	-7	103	94	-21

Looked up above.
In PV pol inh, entry 14 reads 103
In Mtb MenB inh, entry 3 reads 2
In PV pol inh, entry 13 reads 102

Carrying on.
entry	compound	MbtI inh	PV pol inh	PV pol inh intensity	Mtb MenB inh
16	C/C(=C\c1ccc(C(=O)O)cc1)c1ccc2c(c1)C(C)(C)CCC2(C)C	-14	102&101	104&103	4
17	c1cc2c(cc1C1=NCCC1)OCCO2	162	109	114	9
18	COc1ccc(-c2cc(SCCN3CCOCC3)c(C#N)c(-c3ccccc3)n2)cc1	·	98	103	-17
19	Fc1ccccc1N1CCN(CCCNc2nc(=S)[nH]c3ccccc23)CC1	11	102	103	-22
20	Cc1cc(NC(=O)NCc2sccc2C)c(C(F)(F)F)o1	2	98	99	-16
21	COc1ccccc1NC(C)c1cc(Cl)ccc1O (stereo not given)	-2	100	103	-6
22	O=C(CN1C(=O)S/C(=C\c2ccco2)C1=O)CN1C(=O)S/C(=C\c2ccco2)C1=O	-7	101	103	-10
23	CCCCNC(=O)C1CC(=O)N(C2CCCC2)C1 (stereo not given)	-4	100	101	-3
24	Cc1ccc(C(=O)Nc2cc(=O)n(C)c(=O)n2C)cc1	-2	104	105	-15
25	CC(C)N(Cc1cccs1)C(=O)[C@H]1[C@@H]2C[C@@H]3[C@H]1C(=O)O[C@@H]3C2	-5	100	104	-4
26	Cc1cc(Br)ccc1NC(=O)c1ccccn1	-1	104	109	-15
27	O=C(CCC(=O)N1CCC(c2ccccc2)=N1)N1CCN(S(=O)(=O)/C=C/c2ccccc2)CC1	-5	102	97	-37
28	CN(C(=O)C1CCCC1)C1CCS(=O)(=O)C1 (stereo not given)	-3	105	99	-11
29	CCC(Sc1nc(-c2ccc(OC)cc2)nc2c1c(=O)n(C)c(=O)n2C)C(=O)OC (stereo not given)	1	98	102	-27
30	CC(C)(C)c1ccc(C(=O)OCC(=O)Nc2ccc(C#N)cc2)cc1	-8	102	107	·

Profiles, looked up by structure:
O=C(CCC(=O)N1CCC(c2ccccc2)=N1)N1CCN(S(=O)(=O)/C=C/c2ccccc2)CC1 in the list: MbtI inh: -5; PV pol inh: 102; PV pol inh intensity: 97; Mtb MenB inh: -37
Cc1ccc(C(=O)Nc2cc(=O)n(C)c(=O)n2C)cc1 in the list: MbtI inh: -2; PV pol inh: 104; PV pol inh intensity: 105; Mtb MenB inh: -15

Other records follow:
entry	compound	MbtI inh	PV pol inh	PV pol inh intensity	Mtb MenB inh
31	CC(=O)N1CCC(N(CCC(C)C)C(=O)Nc2ccccc2)CC1	-1	101	98	-1
32	CC(Sc1nc(-c2ccccc2)cc(C(F)(F)F)n1)C(=O)N1CCCCC1 (stereo not given)	-5	102	106	0
33	NC(=O)c1cc(S(=O)(=O)NCC2CCN(Cc3cccc(F)c3)CC2)cs1	-11	104	101	-25
34	Cc1cc(C(=O)CSc2nncs2)c(C)n1CC(F)(F)F	7	102	109	-30
35	Cc1ccc(NC(=O)CN2C(=O)S/C(=C/c3ccc4c(c3)n(C)c(=O)n4C)C2=O)cc1C	-13	101	102	-10
36	COC(=O)C1=C(NC(=O)c2ccc(N3C(=O)CCC3=O)cc2)CCS1	3	100	102	9
37	C/C(=N\N)c1cc(C(=O)NN)c(=O)[nH]c1C	5	101	101	10
38	NC1=NC(=Nc2cccc(C(F)(F)F)c2)c2ccccc21	13	105	94	-42
39	CC(C)CCNC(=O)c1cccc(S(=O)(=O)NCc2ccccc2)c1	-6	102	105	·
40	Cc1c(C(=O)NCCC(C)C)oc2ccc(Br)cc12	-26	106	109	-28
41	CCOC(=O)c1sc(NC(=O)CSc2ncccn2)nc1C	4	102	102	-12
42	CCOc1ccccc1C=Nc1ccc(S(=O)(=O)N2CCc3ccccc32)cc1	·	108	115	1
43	O=C(NCC(c1ccco1)S(=O)(=O)c1ccccc1)Oc1ccccc1 (stereo not given)	-7	102	110	-17
44	CCC(=O)Nc1nonc1-c1ccc(C)cc1	-13	104	102	-3
45	CC1(C(=O)NC2CCCCC2)Cc2ccccc2C(=O)N1C1CCCCC1 (stereo not given)	-9	100	105	10
46	CC1CCC(C(C)C)C(OC(=O)Cn2nnc3c(cnn3-c3ccccc3)c2=O)C1 (stereo not given)	-10	102	101	-13
47	CC1C=CCC2C(=O)N(c3cccc(Cl)c3)C(=O)C12 (stereo not given)	20	100	98	9
48	c1coc(CNC2CCCCCCC2)c1	·	102	103	-13
49	Cn1c(SCC#N)nnc1-c1ccccc1	3	100	100	-24
50	O=C1C2CC=CCC2C(=O)N1c1cccc2ccccc12 (stereo not given)	·	99	98	5
51	NS(=O)(=O)c1cc2c(cc1Cl)NC(CSCc1ccccc1)=NS2(=O)=O	-4&-20	101&100	101&103	-5&6
52	CSC1=N/C(=C\c2c(C)nn(-c3ccccc3)c2Cl)C(=O)S1	-1	101	96	-37
53	COc1cc(NC(=O)NCC2CCN(Cc3cc(C)ccc3C)CC2)cc(OC)c1	2	103	96	-3
54	CC1(C)CSC(Nc2ccccc2Cl)=N1	-8	102	98	·
55	NNC(=O)c1ccc(OCC(O)CO)cc1O (stereo not given)	·	109	109	-10
56	CNC(=O)C12N=CNN=C1N(C)C(=O)N2C (stereo not given)	-5	105	101	-11
57	CCOC(=O)Cc1cc(=O)[nH]c(=O)[nH]1	-6	100	98	-46
58	c1ccc2c(-c3nnc4n3CCCCC4)c[nH]c2c1	0	102	107	·
59	CN1c2ccccc2C(=O)NC1C1CC=CCC1 (stereo not given)	-1	109	108	-14
60	Nc1ccc2c(c1)ncn2C1CCCCC1	90	85*	92*	-10

Continued, starting with the last 3 of the part before.
entry	compound	MbtI inh	PV pol inh	PV pol inh intensity	Mtb MenB inh
58	c1ccc2c(-c3nnc4n3CCCCC4)c[nH]c2c1	0	102	107	·
59	CN1c2ccccc2C(=O)NC1C1CC=CCC1 (stereo not given)	-1	109	108	-14
60	Nc1ccc2c(c1)ncn2C1CCCCC1	90	85*	92*	-10
61	CCN(CC)C(=O)COc1ccccc1C(=O)NCc1ccccc1	-6	102	105	27*
62	C/C(=N\O)C(=O)NCCc1c[nH]c2ccccc12	-6	97	95	-13
63	O=C(O)CCCN=Cc1c(O)c2ccccc2oc1=O	14	102	102	6
64	CCCn1c(SCc2cc3c(cc2Br)OCCO3)n[nH]c1=O	12	98	101	-29
65	C[C@H](N)C(=O)N[C@@H](C)C(=O)N[C@@H](Cc1ccccc1)C(=O)CCl	-72	104&102	103&102	-7
66	Cn1c(N)c(C(=O)CN2C(=O)c3ccccc3S2(=O)=O)c(=O)n(C)c1=O	-9	102	106	-18
67	CNc1c(NC(=O)c2ccco2)c(=O)oc2ccccc12	7	101	102	-33
68	N#CC1=C(N)C(C#N)(C#N)C(c2ccccc2)C2CNCC=C12 (stereo not given)	·	116	125	-18
69	O=C(CSc1ccccc1)NCCc1ccccc1	-8	99	104	-2
70	Nc1c(C(=O)Nc2ccccc2)c2nc3ccccc3nc2n1CCCN1CCOCC1	-28	·	·	-25
71	COCCn1c(N)c(NCc2ccccc2)c(=O)n(CC(=O)Nc2cc(C)ccc2C)c1=O	-8	105	98	-17
72	O=C(Cc1ccccc1)NCc1nc(-c2ccccc2)no1	-22	105	103	-10
73	CCN(c1ccccc1)S(=O)(=O)c1ccc2c(c1)CC(C)N2C(=O)C1CC1 (stereo not given)	-1	104	103	-32
74	O=C(O)/C=C/c1cccs1	19	103	107	·
75	CC(=O)Nc1cc(C(=O)NCCN2CCN(c3ccccc3)CC2)ccc1S(=O)(=O)c1ccc(C)cc1	-9	101	100	-26
76	COC(=O)c1ccccc1NC(=O)CSc1nc2ccsc2c(=O)n1-c1ccc(C)c(C)c1	1	102	103	-6
77	O=c1nc(N2CCOCC2)ccn1Cc1ccc(Cl)cc1	-2	103	107	-14
78	CC(CNC(=O)CCc1nnc2n(Cc3ccccc3)c(=O)c3ccccc3n12)c1ccccc1 (stereo not given)	9	99	103	-4
79	COc1ccc(S(=O)(=O)Nc2ccc(S(=O)(=O)N3CCCC3)cc2)cc1C	-1	105	103	-34
80	Cc1cccc(N2CCN(C(=O)C(C)(C)Oc3ccc(Cl)cc3)CC2)c1C	-32	98	100	-13
81	CC(=NCCN1CCN(C(=O)c2ccccc2)CC1)c1c(C)[nH]n(-c2nc3ccccc3s2)c1=O	-9	100	104	-22
82	c1csc(CNC2CC2)c1	-1	103	100	-6
83	COc1ccc(CCNCc2ccccc2O)cc1	-10	100	103	5
84	O=S(=O)(c1ccc2c(c1)CCO2)N1CCCN(c2nccc(C(F)(F)F)n2)CC1	7	102	103	11
85	CN1/C(=C\C=N\O)C(C)(C)c2ccccc21	3	106	110	0
86	CCN(CC)c1ccc(N=Cc2cc(C)n(-c3ccc(OC(C)=O)cc3)c2C)cc1	·	102	101	-14
87	COC(=O)n1c(SC)nc2ccccc21	·	99	107	-22
88	CCN(CC)C(=O)c1cccc(NC(C)=O)c1	-14	101	96	-6
89	CS(=O)(=O)N(CC(=O)NCc1ccccc1)c1cc(C(F)(F)F)ccc1Cl	10	102	97	-3
90	CN(C1CCCCC1)S(=O)(=O)c1ccc(CN2C(=O)c3cccnc3C2=O)cc1	-8	102	104	1
91	Cc1ccc(C)c(NC(=O)CN2C(=O)C3CC=CCC3C2=O)c1 (stereo not given)	22	97	104	0
92	CCN(CC)c1ncc2c(SCC(N)=O)nc(SCC(N)=O)nc2n1	39	103	101	-27
93	S=C(/C(=C/N1CCOCC1)c1ccccc1)N1CCOCC1	17	104	105	-24
94	N#Cc1sc2ncc3c(c2c1N)CCCC3	-78	102	105	-18
95	CC1=NN(c2cccc3ccccc23)C(=O)C1	-22	105	100	-70
96	CC(=O)N1CCN(C(=O)COc2ccc(NC(=O)c3ccccc3)cc2)CC1	-18	103	112	-14
97	CCCCNC(=O)c1cc(C)nc2ccccc12	0	103	100	-4
98	CCOC(=O)c1c(/C=C2\C(=O)Nc3ccccc32)c(C)n(-c2ccccc2)c1C	-5	102	109	-37
99	O=C(O)CCNc1nc(-c2ccccc2)c2cc(Br)ccc2n1	1	102	103	-9
100	Cc1[nH]c2ccc(OC(F)(F)F)cc2c1CCNC(=O)C1CC=CCC1C(=O)OC(C)C (stereo not given)	·	102	99	-28
101	O=C(CC12CC3CC(CC(C3)C1)C2)NO	2	107	110	-17
102	O=C(Oc1ccc(-c2nnco2)cc1)c1ccccc1OC(F)F	0	104	102	3
103	COc1ccc(Cl)cc1NC(=O)C1CCCN(c2cc(C)nc3ncnn23)C1 (stereo not given)	12	102	103	14
104	CC(c1ccccc1)C1C(C#N)=C(N)Oc2n[nH]c(-c3ccccc3)c21 (stereo not given)	-6	103	105	·
105	CC(C)(C)CC(C)(C)c1ccc(O)c(Cc2ccc(Cl)cc2Cl)c1	-25	100	102	1
106	Cc1ccc(C(=O)NC(NCc2ccco2)(C(F)(F)F)C(F)(F)F)cc1	-6	103	107	-2
107	Oc1ccc(C=NCc2ccco2)cc1	16	100	101	17
108	COC(=O)CN(c1ccccc1Cl)S(C)(=O)=O	-6	101	102	13
109	CC1=C(C(=O)OC2CCCN(C)C2)C2(O)C(=O)c3ccccc3C2(O)N1 (stereo not given)	-3	105	104	-17
110	Cc1onc(-c2ccccc2Cl)c1C(=O)N1CC(C)CC(C)C1 (stereo not given)	0	103	104	-16
111	CSc1nnnn1-c1ccc(C(N)=O)cc1	-6	99	102	-2
112	CN1C(=O)Oc2ccc(Cl)cc2C1O (stereo not given)	-3	100	98	-11
113	Cc1ccc(-c2nn(-c3ccccc3)cc2/C=C/C(=O)OCC(N)=O)o1	106	102	99	-24
114	C=CCn1c(COc2cccc(C)c2)nnc1SCC(=O)N1CCNC1=O	-3	104	106	7
115	O=C(c1cnc(N2CCCC2)nc1)N1CCCC1	-2	105	109	-15
116	COc1ccc(C2=NC(=O)/C(=C\c3cccc(F)c3)O2)cc1	-16	102	98	-18
117	N#Cc1c(Nc2ccccc2)sc(C(=O)c2cccs2)c1N	-3	100	105	-74
